Tg IFNy HTS – blocks Toxoplasma gondii growth in the presence of IFN-gamma; Toxoplasma gondii growth in IFN-gamma-treated host cells; active compounds read low; reference of the scale not given here; activity change, negative = inhibition, %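 (about 20 µM by stock and volumes)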; actives 3.8% (n = 69,000); AID 1259416;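 active = below -70%; inconclusive = fit judged invalid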;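 also: host cells are HeLa cells infected with Toxoplasma gondii; parasite growth read as luciferase light; one replicate is shown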
* = called active by the depositor; i = inactive; u = inconclusive; & = joins results of further samples. Some of the compounds tested; the hit share may differ from the screen's.

SMILES | Tg IFNy HTS
CCOCCC(=O)Nc1cc(C(N)=O)ccc1N1CCCC(C)C1 (stereo unspecified) | 47.1
CC(Cc1cccnc1)Nc1nccc(-c2cnn(-c3ccccc3F)c2)n1 (stereo unspecified) | -71.7*
CCOc1ccc(NC(=O)Cn2ncc3c(N4CCCC4)ncnc32)cc1 | 41.6
COCC1CC2(CCN(C(=O)C3=CCCC3)CC2)CN1S(C)(=O)=O (stereo unspecified) | -35.3
C[C@@H]1CN([C@@H](C)CO)C(=O)CCCn2cc(nn2)CO[C@H]1CN(C)C(=O)Nc1ccc2c(c1)OCO2 | i
Cc1oc(-c2ccc(NC(=O)c3cccc(Br)c3)cc2)nc1Cn1cccn1 | -41.3
CCOc1ccc(C(=O)NCCc2sc(-c3cccc(C)c3)nc2C)cc1 | 117.2
N#Cc1cccc(-c2ccc(C3[C@H]4CNC[C@@H]3N4Cc3cc(F)ccc3F)cc2)c1 (stereo partly specified) | 5.7&-63.0
CC(C)N(C[C@H]1N[C@H](CO)[C@H]1c1ccccc1)S(=O)(=O)c1ccccc1 | -32.9
COc1ccc(NC(=O)CSc2nc3ccc(C)cc3cc2C#N)cc1 | 92.9
CCS(=O)(=O)Nc1ccc2c(c1)C(=O)N(C)C[C@H](OC)[C@H](C)CN(CC1CCCCC1)[C@@H](C)CO2 | 321.5
NC(=O)Cc1csc(NC(=O)C2CC(c3ccccc3Cl)=NO2)n1 (stereo unspecified) | -6.7
C[C@H](CO)N1C[C@H](C)[C@@H](CN(C)C(=O)c2ccncc2)OCCCC[C@H](C)Oc2ccc(NC(=O)CCC(F)(F)F)cc2C1=O | 100.6
O=C(CCN1CCCCO1)NCCc1ccccc1Cl | 0.6
CNC(=O)[C@H]1C[C@@H]2CN(Cc3cnn(C)c3)C[C@@H]2N1C(C)=O | 2.7
CCOC(=O)c1nn(Cc2ccccc2)c2c1CN(C(=O)Cc1cccs1)CC2 | -43.3
Cc1nc(SCc2ccccc2)nc2c1CCCC2 | 84.2
Cn1c(=O)n(C)c2cc(CNC(=O)c3n[nH]c4c3CCC4)ccc21 | 3.8
C=CCn1cnc(-c2ccccc2)c1-c1ccc2onc(C)c2c1 | -0.7
Cc1ccc(C)c(NC(=O)c2c(O)c3cccnc3n(-c3cccc(F)c3)c2=O)c1 | 217.8
CNC(=O)CC1CC2(CCN(C(=O)C(C)C)CC2)Oc2ccccc21 (stereo unspecified) | -0.1
OC[C@@H]1[C@H](c2ccc(C#Cc3ccccc3F)cc2)[C@H]2CN(CC3CCOCC3)CCCCN12 | -19.5
C[C@@H]1CCCCO[C@H](CN(C)Cc2ccc(C(=O)O)cc2)[C@@H](C)CN([C@H](C)CO)C(=O)c2cc(N(C)C)ccc2O1 | 12.5
CC(=O)c1ccc(OCC(O)Cn2cnc3ccccc32)cc1 (stereo unspecified) | 23.5
N#Cc1c2c(c(N3CCOCC3)[nH]c1=S)CCCC2 | -42.9
O=C(NCc1ccc(Cl)cc1)c1c(O)c2cccnc2n(-c2ccccc2)c1=O | -69.1
COc1ccc(CNC(=O)N(C)C[C@@H]2OCc3ccccc3-c3c(n(C)c4ccccc34)C(=O)N([C@H](C)CO)C[C@@H]2C)cc1 | -25.2
COCCC(=O)Nc1ccc(-c2nc(Cn3cccn3)c(C)o2)cc1 | 94.2
CN(C)C(=O)CN1CCC2(CCCN2Cc2cnn(C)c2)CC1 | -55.1
O=C(Nc1ccccc1F)c1ccc2nnc(C3CCN(Cc4ccccc4)C3)n2c1 (stereo unspecified) | -64.0
CN(C)C(=O)CNC(=O)c1ccc2nnc(C3CCN(Cc4ccccc4)C3)n2c1 (stereo unspecified) | -2.8
CCOc1ccc(NC(=O)C(=O)NCCc2csc(-c3ccc(F)cc3)n2)cc1 | 41.2
Cc1ccc(C(C)(C)NC(=O)[C@H](Cc2ccccc2)N(C)C)cc1 | 9.3
CC(C)(C)Cn1c(N)nc2ccc(-c3[nH]c(C(C)(C)C)nc3-c3ccc(F)cc3)nc21 | -83.1*
CCOC(=O)c1ccc2[nH]c(C)c(CCC(C)=O)c(=O)c2c1 | 15.3
C[C@H](CO)N1C[C@H](C)[C@@H](CN(C)Cc2cccc3c2OCCCO3)OCc2cnnn2CCCC1=O | 201.5
C/C=C/c1ccc([C@@H]2[C@H](CO)N(C(C)=O)[C@H]2CNC(=O)c2ccccc2)cc1 | -6.0
COc1ccc(-c2cc(C(=O)NC(C(=O)O)C(C)C)c(C)o2)cc1OC (stereo unspecified) | -36.3
C=C1C(=O)O[C@H]2[C@H]1CC/C(C)=C/CC[C@@]1(C)O[C@@H]21 | 6.8
Cc1c(NC(=O)CN2C(=O)c3cccc4cccc2c34)c(=O)n(-c2ccccc2)n1C | -28.2
CC(C)c1noc(-c2cc(=O)n(CC(=O)Nc3ccc(F)cc3F)c3ccccc23)n1 | 5.8
C=Cc1ccc(Cn2nc(-c3ccco3)c(-c3cc(C)no3)cc2=O)cc1 | -2.7
Cc1ccccc1-c1nc(CN2CCN(C(=O)Nc3ccccc3)CC2)c(C)o1 | 0.5
Cc1onc(-c2ccccc2Cl)c1C(=O)N1CCC2(CN(C)C(=O)O2)C1 (stereo unspecified) | 1.5
c1ccc(-c2cccc(CN3CCCC3c3ccccn3)c2)nc1 (stereo unspecified) | 3.7
O=C(O)c1ccccc1Cc1cccs1 | 22.3
CCCNC(=O)N1C[C@@H]2[C@H](c3ccccc31)[C@@H](CO)N2Cc1cccc(OC)c1 | -14.1
COc1ccc(-c2ccc(OCCNC(=O)c3sc(-c4ccccc4)nc3C)nn2)cc1 | -5.0
O=S(=O)(NC1=NCCCN1)c1cc(C(F)(F)F)cc(C(F)(F)F)c1 | 43.7
COC(=O)CC1C(=O)NCCN1C(=O)c1cccc2c1NCCC2 (stereo unspecified) | 1.3
Cc1csc(NC(=O)CS(=O)(=O)Cc2ccccc2)n1 | 6.4
Cc1csc([C@H]2C[C@H]3CCN(C(=O)c4cnccn4)C[C@@H]3O2)n1 | -46.7
CCOc1ccc(N=C(C)Nc2ccc(OCC)cc2)cc1 | 12.8
CC(=O)N1CC2(C1)[C@H](c1ccccc1)[C@H](CO)N2C(=O)c1cnccn1 | -23.9
CCC(CO)N(Cc1ccc(F)cc1)Cc1c(C)nn(C)c1Cl (stereo unspecified) | -3.6
COC(=O)c1cc2c(cc1NC(=O)c1nc(-c3ccc(C)cc3)n3c1CCCCC3)OCO2 | 283.9
C=CCN1CCCC1C(=O)N1CCn2nc(C(=O)Nc3ccccc3)cc2C1 (stereo unspecified) | 0.7
CC(C)(O)C#Cc1cccc(C(=O)N2CCc3nc[nH]c3C2)c1 | -17.2
O=C(Cc1ccccc1)N1CC[C@H](O)[C@@H]1Cc1ccccc1 | 174.8
O=C(Cc1ccsc1)N1CCC2(CC1)Nc1cccnc1NC2=NC1CCCC1 | 30.3

2 of the compounds above, field by field.
Molecule: CCCNC(=O)N1C[C@@H]2[C@H](c3ccccc31)[C@@H](CO)N2Cc1cccc(OC)c1
  Tg IFNy HTS: -14.1

Molecule: CC(=O)c1ccc(OCC(O)Cn2cnc3ccccc32)cc1 (stereo unspecified)
  Tg IFNy HTS: 23.5

(more compounds)
SMILES | Tg IFNy HTS
CC(C)[C@@H]1COCc2cnnn2CCC[C@@H](C)C(=O)N1 | -50.4
COc1ccc2c3c([nH]c2c1)[C@H](CO)N(C(=O)c1ccccn1)CC31CCN(S(C)(=O)=O)CC1 | -27.0
O=C1c2cc(Cl)ccc2-c2ccc(Cl)cc21 | -9.3
COc1ccc(Cn2nnnc2C(c2ccc3ncccc3c2)N2CCSCC2)cc1 (stereo unspecified) | -5.5
O=C(Cn1ncc2c(N3CCCCCC3)ncnc21)NCc1ccccc1Cl | 36.9
COC(=O)[C@@H]1C[C@@H](O)CN1C(=O)CN1CCOc2ccccc2C1 | -3.3
O=C(C1CCCCC1)N1CCc2c([nH]c3ccccc23)C1c1ccc(F)cc1 (stereo unspecified) | -75.3*
O=c1[nH]nc(CN2CCCCC2)n1Cc1ccccc1 | -42.4
C[C@@H]1CN([C@H](C)CO)C(=O)c2cc(NS(=O)(=O)c3cn(C)cn3)ccc2O[C@@H]1CN(C)S(=O)(=O)c1ccc(F)cc1 | 41.7
COc1ccc2c3c(n(C)c2c1)[C@@H](CO)N(C(=O)c1ccc(F)cc1)CC31CN(CC2CCOCC2)C1 | -22.4
O=C(c1cccc(Cn2cccn2)c1)N1CCOC(C(F)(F)F)C1 (stereo unspecified) | 1.0
CCCNC(=O)c1nc(Nc2ccc(F)cc2)c2ccccc2n1 | -33.0
Cc1sccc1C(=O)N1CCC2(CC1)CC(NS(C)(=O)=O)C2 | 6.5
C=CCN(Cc1cccc(OC)c1)C(=O)c1cc(Cl)ccc1OC | 67.5
OCCN1Cc2[nH]nc(COc3cccnc3)c2C1 | 150.1
O=C(Cn1ncc2c(N3CCCCC3)ncnc21)NCc1cccc(Br)c1 | -50.4
N#C[C@@H]1[C@@H](c2ccccc2-c2ccccc2F)[C@H](CO)N1C(=O)c1cccc(F)c1 | -29.6
O=C([C@@H]1C[C@@H](O)CN1)N1CCc2[nH]nc(-c3cccc4ccccc34)c2C1 | 15.0
CC(=O)N1CCCc2sc(C(=O)NCC3CCCO3)nc21 (stereo unspecified) | -28.5
Cc1cccc(-c2ccc([C@H]3[C@H]4CN(S(=O)(=O)c5ccccc5F)CCCCN4[C@H]3CO)cc2)c1 | -40.0
O=C(CCCCC1SCC2NC(=O)NC21)NC1(c2ccc3c(c2)OCO3)CCCC1 (stereo unspecified) | -2.4
C=CC(N)CCC(=O)O (stereo unspecified) | 29.2
Cc1nc(C)n(CC(C)C(=O)Nc2nc(-c3ccc4c(c3)CCCO4)cs2)n1 (stereo unspecified) | 66.1
COC1=CC(=O)C(=O)C/C1=C\C=C\c1ccccc1 | 7.8
CCN1CCOCC12CCN(C(=O)Cc1ccsc1)CC2 | 99.9
COCCN1CCN(c2nc(C3CCCC3)nc3c2cnn3C)CC1 | -13.4
Cc1cc(CN(C)Cc2ccc(-n3cccn3)cc2)n[nH]1 | -2.6
O=C(CSc1nccc2ccccc12)NC1CCCOC1 (stereo unspecified) | -8.5
Cc1cccnc1NCCNC(=O)c1cn2cccc(C)c2n1 | -1.7
CCc1cc(CN(C)C(=O)C2CC(=O)N(c3cccc(O)c3)C2)on1 (stereo unspecified) | -0.4
Cc1cc(C(=O)NC2CCC3(CCC(=O)N3C)CC2)no1 (stereo unspecified) | -69.1
C=CCOCc1cncc2c1CCN(C(=O)c1ccc3[nH]ccc3c1)C2 | -3.0
CC1CCCN(CC(C)(C)NC(=O)COc2ncnc3ccccc23)C1 (stereo unspecified) | 8.4
CCCCc1nccn1CCn1ccnc1CCCC | -13.0
Cc1ccc(-c2nnc(-c3nc(NCc4ccccc4F)c4ccccc4n3)o2)cc1 | 66.3
Cc1ccc(Oc2ncccc2CNC(=O)c2nc[nH]c2C)cn1 | 1.1
COc1cc(-c2nnc(SCC(=O)c3cccs3)n2C)cc(OC)c1OC | -40.8
CCOc1ccc2oc(=O)cc(CN(CCCN3CCOCC3)Cc3ccco3)c2c1 | 26.5
C[C@@H]1CN([C@@H](C)CO)C(=O)c2c(c3ccccc3n2C)-c2ccccc2CO[C@H]1CN(C)C(=O)[C@H]1CCCN1C | -15.9
CNc1nc(C)c(C(=O)NCc2c(C)nn(-c3ccc(F)cc3)c2C)s1 | 10.2
CCOc1ccc(NC2C=CS(=O)(=O)C2)cc1 (stereo unspecified) | -46.5
COc1ccc(CC2CN(C(=O)CCCn3cnnn3)CCO2)cc1 (stereo unspecified) | 3.9
O=C(NCCNc1ncc(Cl)cc1C(F)(F)F)C(F)(F)Sc1ccccc1 | -42.4
Fc1ccc(C2=CCN(C(=S)Nc3ccccc3)CC2)cc1 | 96.9
N#C[C@@H]1[C@H](c2ccc(-c3cccc(F)c3)cc2)[C@H](CO)N1C(=O)NC1CCCC1 | -59.5
O=C(NC1CCCCC1)Oc1ccccc1 | 20.2
Cc1nnnn1-c1cccc(C(=O)N2CCC(c3cc(C(C)C)n[nH]3)CC2)c1 | -3.6
Cc1ccoc1C(=O)N1C[C@H]2OC(=O)N(CCc3ccccn3)[C@H]2C1 | 1.6
Cc1ccccc1Nc1ncnc2c1cnn2-c1ccc(Cl)cc1 | 371.6
CN(C)S(=O)(=O)N1C[C@H]2CCCO[C@H]2[C@@H](Nc2ccccn2)C1 | -1.1
OCC1(CCc2ccccc2)CCCN(c2ncnc3sccc23)C1 (stereo unspecified) | -69.7
CS(=O)(=O)N1CCc2sc(C(=O)NCc3ccccc3)cc21 | -3.6
c1cncc(CN2CCOC3(CCNCC3)c3ccccc32)c1 | -6.3
CC1=CC(C)(C)N2C(=O)C3(NCCc4c3[nH]c3ccccc43)c3cc(C)cc1c32 (stereo unspecified) | -63.2
N#Cc1cc(Sc2ccccn2)c(Sc2ccccn2)cc1C#N | 21.1
O=C(Cc1cc2c(cc1Cl)OCCO2)NCc1cccnc1-n1ccnc1 | 13.7
O=C(N1CCC(n2nc(-c3ccsc3)ccc2=O)CC1)C1(c2ccccc2)CC1 | u

A portion of the results above:
SMILES | Tg IFNy HTS
Fc1ccc(C2=CCN(C(=S)Nc3ccccc3)CC2)cc1 | 96.9
N#C[C@@H]1[C@H](c2ccc(-c3cccc(F)c3)cc2)[C@H](CO)N1C(=O)NC1CCCC1 | -59.5
O=C(NC1CCCCC1)Oc1ccccc1 | 20.2
Cc1nnnn1-c1cccc(C(=O)N2CCC(c3cc(C(C)C)n[nH]3)CC2)c1 | -3.6
Cc1ccoc1C(=O)N1C[C@H]2OC(=O)N(CCc3ccccn3)[C@H]2C1 | 1.6
Cc1ccccc1Nc1ncnc2c1cnn2-c1ccc(Cl)cc1 | 371.6
CN(C)S(=O)(=O)N1C[C@H]2CCCO[C@H]2[C@@H](Nc2ccccn2)C1 | -1.1
OCC1(CCc2ccccc2)CCCN(c2ncnc3sccc23)C1 (stereo unspecified) | -69.7
CS(=O)(=O)N1CCc2sc(C(=O)NCc3ccccc3)cc21 | -3.6
c1cncc(CN2CCOC3(CCNCC3)c3ccccc32)c1 | -6.3
CC1=CC(C)(C)N2C(=O)C3(NCCc4c3[nH]c3ccccc43)c3cc(C)cc1c32 (stereo unspecified) | -63.2
N#Cc1cc(Sc2ccccn2)c(Sc2ccccn2)cc1C#N | 21.1
O=C(Cc1cc2c(cc1Cl)OCCO2)NCc1cccnc1-n1ccnc1 | 13.7
O=C(N1CCC(n2nc(-c3ccsc3)ccc2=O)CC1)C1(c2ccccc2)CC1 | u
